Compound activity (PubChem)
PK Bst = pyruvate kinase (B. stearothermophilus) modulation; partly purified Bacillus stearothermophilus pyruvate kinase, luminescence ATP production; ribose 5-phosphate activator present at AC10; Potency, µM; hit rate 1.2% among 51,000; in the data active means potency below about 11 µM; inconclusive means mostly about 12 µM to 25 µM; inactive means weaker than that;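 the screen sought inhibitors and activators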;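 further: potency means the concentration at half of the fitted maximal effect; scaled between full activation by ribose 5 phosphate and full inhibition by luteolin; about four in five hits inhibit and the cells do not say which; series up to 57 µM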
TsaE inh = displaces an ADP probe from E. coli YjeE (TsaE) | P0AF67 | purified YjeE, fluorescence polarisation of a bound ADP probe | Potency, µM | hit rate 0.05% among 71,000 | AID 605; active = well fitted falling curve; inconclusive = weaker or top-dose-only fall, or a rising curve; inactive = flat or poorly fitted curve;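 further: top concentration of the series not given in the record; excess ADP was the control for the full effect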
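Purified YjeE (10 uM) with BODIPY Texas Red-labeled ADP probe (2 uM); compounds pin-transferred, 15 min at room temperature. Binding inhibition read as decreased fluorescence polarization; ADP titration as control.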
* marks the source's active call; other numbers are inactive results; i = inactive; ? = inconclusive; / = no result given.

Under each structure – TsaE inh | PK Bst
CCN1CCN(c2c(Cl)cccc2NC(=O)c2ccc(Br)o2)CC1
→ i | /
COc1cc(C)c(C)cc1S(=O)(=O)N1CCN(Cc2ccc3c(c2)OCO3)CC1
→ i | >57
O=c1c(-c2cc(F)cc(F)c2)nc2cnc(Oc3ccccc3)nc2n1C[C@H]1CCCO1
→ i | /
c1ccc(Cn2nnc3c(N4CCCCCC4)ncnc32)cc1
→ i | /
CC(C)c1ccc(Nc2nc(NCc3ccco3)nc(N3CCOCC3)n2)cc1
→ i | >57
Cc1cc(NC(=O)c2cnn3cccnc23)no1
→ i | >57
COC(=O)c1ccc(-c2cc(C(=O)O)c3cc4c(cc3n2)OCCO4)cc1
→ i | ?
CC(C)Oc1ccc2c(=O)c3cc(C(=O)O)ccc3oc2c1
→ i | /
COc1ccc2nc(NC(=O)CN3CCN(C)CC3)sc2c1
→ i | >57
CS(=O)(=O)N(CCc1ccccc1)CC(=O)NCc1ccc2c(c1)OCO2
→ i | >57
O=C(O)/C=C\C(=O)Nc1ccc2c(c1)C(=O)c1cc(F)ccc1-2
→ i | /
O=C(CSc1nnc(-c2cccs2)n1-c1ccccc1)N1CCOCC1
→ i | >57
OC1(c2cccc(F)c2)CCN(Cc2ccncc2)CC1
→ i | >57
Cc1sc2ncn(-n3c(C)ccc3C)c(=O)c2c1C
→ i | >57
COC(=O)CN(c1ccc2c(c1)OCO2)S(C)(=O)=O
→ i | >57
O=C1NC(=O)C2(CCc3ccccc32)N1 (centres undefined)
→ i | >57
O=C(CCC1CCCC1)NCCCN1CCOCC1
→ i | >57
CN(C(=O)COC(=O)C1CCN(S(=O)(=O)c2cccs2)CC1)C1CCS(=O)(=O)C1 (centres undefined)
→ i | >57
CCOc1cccc(-c2nnc(SCC(=O)Nc3cc(C)ccc3OC)n2N)c1
→ i | >57
O=C(CCNS(=O)(=O)c1cccc2nsnc12)NCCC1=CCCCC1
→ i | >57

Laid out differently: results already given.
SMILES	TsaE inh	PK Bst
Cc1sc2ncn(-n3c(C)ccc3C)c(=O)c2c1C	i	>57
COC(=O)CN(c1ccc2c(c1)OCO2)S(C)(=O)=O	i	>57

(listing goes on)
Under each structure – TsaE inh | PK Bst
CCCNc1nc2c(c(=O)n(C)c(=O)n2C)n1CCc1ccccc1
→ i | >57
CCC/C=C(\CCC)C(NC(=O)CCc1ccccc1)c1ccc(C(F)(F)F)cc1 (centres undefined)
→ i | /
O=C(NCc1ccco1)c1ccc2c(c1)C(=O)N(Cc1ccccc1)C2=O
→ i | >57
COc1ccc(C2CC(c3ccc(F)cc3)Nc3nc(N)nn32)cc1 (centres undefined)
→ i | /
CCc1nnc(NC(=O)CN2CCN(c3nc(-c4ccccc4)cs3)CC2)s1
→ i | >57
O=C1C2CC=CCC2C(=O)N1c1ccc(OCC(O)Cn2nnc3ccccc32)cc1 (centres undefined)
→ i | >57
O=C(OCCOCCO)c1ccccc1Nc1cccc(C(F)(F)F)c1
→ i | /
O=C(O)CCSc1nc2ccc(Br)cc2[nH]1
→ i | /
COc1ccc2[nH]c(=O)c(CN(CCN(C)C)C(=O)NCc3ccccc3)cc2c1
→ i | >57
CC(C)CCn1c(NCCN(C)C)nc2c1c(=O)[nH]c(=O)n2C
→ i | >57
COc1ccccc1CNC(=O)c1cc2sccc2n1C
→ i | >57
COC(=O)COc1ccc(S(=O)(=O)N2CCOCC2)cc1C
→ i | >57
Cc1ccc(S(=O)(=O)Cn2nnnc2C(CC(C)C)N2CCN(c3ccc(F)cc3)CC2)cc1 (centres undefined)
→ i | >57
Cc1ccc2nc(CSc3nnc(Cc4cccs4)n3C3CCCCC3)cc(=O)n2c1
→ i | >57
CC1(C)CC(=O)C([C@H]2C3=C(CC(C)(C)CC3=O)Oc3ccccc32)C(=O)C1
→ i | /
O=C(c1ccc(Cl)c(F)c1F)N1CCCC1
→ i | >57
CC1=C(C(=O)OCc2ccccc2)C(c2ccc(Cl)cc2)NC(=O)N1CCCCCC(=O)O (centres undefined)
→ i | /
CC(C(=O)Nc1ncc2c(n1)CC(C)(C)CC2=O)N1C(=O)c2ccccc2C1=O (centres undefined)
→ i | >57
CC(=O)c1cccc(NC(=O)c2nccnc2C(=O)O)c1
→ i | /
Cc1noc(C)c1S(=O)(=O)Nc1ccc(C(=O)N2CCc3ccccc3C2)cc1
→ i | >57
O=C(c1ccccc1)c1nnc(-c2ccccc2F)o1
→ i | 8.5*
Cc1cc(C)nc(NC(=O)CSc2nnnn2-c2ccccc2)n1
→ i | >57
COc1ccc(C(OC(=O)c2c(C)noc2C)C(=O)NC2CCCC2)cc1 (centres undefined)
→ i | >57
c1ccc(OCc2nnc3sc(-c4cccs4)nn23)cc1
→ i | >57
CC(=O)Nc1ccc(-c2cn3ccsc3n2)cc1
→ i | ?
O=C(CN1CCCC1)NCC12CC3CC(CC(C3)C1)C2
→ i | >57
CC1CCc2c(C(=O)NCCCN3CCOCC3)csc2C1 (centres undefined)
→ i | >57
Cc1noc(C)c1Cn1nc(C(=O)O)c2ccccc2c1=O
→ i | >57
CC(=O)N1[C@H](C)C=C[C@]1(Cc1ccccc1)C(=O)O
→ i | /
O=C(Cn1cnc2c(nnn2Cc2ccccc2F)c1=O)NCc1ccco1
→ i | >57
Cc1cc(C)c2c(N)c(C(=O)NCc3ccco3)sc2n1
→ i | >57
Cc1ccc(C)c(S(=O)(=O)Nc2ccc3scnc3c2)c1
→ i | ?
CSc1nsc(SCC(=O)N2CCc3ccccc32)n1
→ i | >57
COc1nc2c(C)cccc2cc1-c1noc(-c2ccco2)n1
→ i | >57
CCn1nnc(NC(=O)c2ccc(C(C)(C)C)cc2)n1
→ i | ?
O=C(O)C1C2C=CC(O2)C1C(=O)NCCCn1ccnc1 (centres undefined)
→ i | >57
COc1ccc(OC)c(NC(=O)Nc2cccc(Cn3cccn3)c2)c1
→ i | >11
Cc1ccc(C)c(C(=O)n2cnnc2N)c1
→ i | >57
C/C(Cl)=C\Cn1c(=O)c2c(nc3n2CCS3)n(C)c1=O
→ i | >57
Cc1ccc(N(Cc2cc3ccccc3[nH]c2=O)C(=O)c2ccco2)c(C)c1
→ / | >26
COCCn1c(SCC(=O)c2ccc3c(c2)OCCO3)nnc1-c1ccco1
→ i | >57
CCN(CC)CC#CC(C)OCOCC#CCOC (centres undefined)
→ i | /
CC(=O)NCc1nc2ccccc2n1C(C)C
→ i | /
O=c1[nH]c(-c2ccncc2)nc2ccccc12
→ i | i
COc1ccccc1NCCC(=O)OCC(=O)Nc1ccc(Cl)cn1
→ i | >57
Nc1ccc(-n2ccnc2)cc1
→ i | >57
O=C(c1ccco1)N1CCN(C2CC(=O)N(c3ccc4c(c3)OCO4)C2=O)CC1 (centres undefined)
→ i | >57
Cn1ncc(Cl)c1C(=O)N1CCc2ccccc21
→ i | >57
CN(C)c1ccc(C2C3=C(CCCC3=O)OC3=C2C(=O)CCC3)cc1
→ i | >57
O=C(O)C1CC=CCC1C(=O)NCCc1ccccc1 (centres undefined)
→ i | /
CCOC(=O)CSc1nnc(-c2ccco2)n1C
→ i | >57
CCOC(=O)CCNC(=O)Nc1ccc2nc(C)n(Cc3ccccc3Cl)c(=O)c2c1
→ i | >57
N#Cc1nc(-c2cccs2)oc1NCC1CCCO1 (centres undefined)
→ i | >57
O=C(CN1C(=O)c2cccc3cccc1c23)Nc1ccc(S(=O)(=O)N2CCOCC2)cc1
→ i | 10*
NC(=O)NC(=O)Nc1ccccc1Cl
→ i | >57
CC1(C)CC(=O)C(C#N)=C(NCCCO)C1
→ i | /
CCOc1ccc(-n2c(SCC(N)=O)nc3c([nH]c4ccccc43)c2=O)cc1
→ i | /
COc1ccc2c(c1)CCc1c(C(=O)NCc3cccnc3)noc1-2
→ i | >57
O=C(CCCN1C(=O)c2ccccc2C1=O)NCc1cccnc1
→ i | >57
[Cu].[O-]/N=C1/C(=[OH+])Nc2ccccc21.[O-]Nc1c(O)[nH]c2ccccc12
→ i | /

Among those listed so far, these contain bromine:
Under each structure – TsaE inh | PK Bst
CCN1CCN(c2c(Cl)cccc2NC(=O)c2ccc(Br)o2)CC1
→ i | /
O=C(O)CCSc1nc2ccc(Br)cc2[nH]1
→ i | /

3 structures out of the list, sorted by molar mass, lowest first:
Under each structure – TsaE inh | PK Bst
COc1ccc2c(c1)CCc1c(C(=O)NCc3cccnc3)noc1-2
→ i | >57
COc1ccccc1NCCC(=O)OCC(=O)Nc1ccc(Cl)cn1
→ i | >57
[Cu].[O-]/N=C1/C(=[OH+])Nc2ccccc21.[O-]Nc1c(O)[nH]c2ccccc12
→ i | /

(cont.)
Under each structure – TsaE inh | PK Bst
CCC1Oc2ccccc2N(CC(=O)Nc2ccc3c(c2)OCCO3)C1=O (centres undefined)
→ i | >57
Fc1ccccc1OCCSc1nc2ccccc2o1
→ i | >57
CCOC(=O)N1CCC(n2c(SCC(=O)Nc3ccccc3OC)nc3ccccc3c2=O)CC1
→ i | >57
COCCn1c(=O)cnc2cnc(OCc3ccccc3)nc21
→ i | /
COc1ccc(NC(=O)N(C2CCCCC2)C2CCN(C(C)C)CC2)c(OC)c1
→ i | >57
COCCCN1C(=O)C(O)=C(C(C)=O)C1c1cccc(F)c1 (centres undefined)
→ i | >57
CCOC(=O)c1cc2occc2n1CC(=O)Nc1ccc(OC)cc1OC
→ i | >57
C[N+](C)(CCCCCC[N+](C)(C)CCCN1C(=O)c2cccc3cccc(c23)C1=O)CCCN1C(=O)c2cccc3cccc(c23)C1=O
→ i | /
COc1cc(C2CC(=O)NC(SCC(=O)Nc3ccccc3C)=C2C#N)ccc1O (centres undefined)
→ i | >57
CCN(Cc1cc2cccc(C)c2[nH]c1=O)C(=O)c1ccccc1OC
→ i | /
O=C(Nc1cccc(NC(=O)c2cccs2)c1)c1ccco1
→ i | >57
CCn1c(SCC(=O)Nc2ccc(NC(=O)c3ccco3)c(OC)c2)nc2ccccc2c1=O
→ i | >57
O=c1cc(N2CCN(Cc3ccccc3)CC2)[nH]c(=O)n1-c1cccc(C(F)(F)F)c1
→ i | >57
O=C(CSc1nnc(CN2CCOCC2)n1-c1ccccc1)Nc1ccc(Cl)cc1
→ i | >57
COc1ccc(-n2c(=O)c(CCc3ccccc3)nc3cnc(N4CCOCC4)nc32)cc1
→ i | /
CC(O)CCc1nc2ccc(C(=O)O)cc2[nH]1 (centres undefined)
→ i | >57
Cc1cccc2cc(CN(Cc3cccs3)C(c3nnnn3C3CCCC3)C(C)C)c(=O)[nH]c12 (centres undefined)
→ i | >57
Cc1ccc(S(=O)(=O)N2CCCC(C(=O)O)C2)s1 (centres undefined)
→ i | /
COC(=O)c1c(NC(=O)c2ccco2)sc(C)c1C
→ i | >57
O=C(O)c1cc2c([nH]c1=O)CCCC2
→ i | >57
Cn1cccc1Cc1nnc(SCC(=O)Nc2cccc(Cl)c2)n1-c1ccc(F)cc1
→ i | /
COc1cc(C2C3C(=O)N(Cc4ccccc4)C(=O)C3ON2c2ccccc2)cc(OC)c1OC (centres undefined)
→ i | >57
Oc1ccc(C=NCC2COc3ccccc3O2)cc1 (centres undefined)
→ i | /
COc1ccccc1N1CCN(C(c2ccc(Cl)cc2)c2nnnn2C(C)(C)C)CC1 (centres undefined)
→ i | >57
Cc1cc(C)c(C)c(S(=O)(=O)Nc2ccccc2C(=O)NCCCn2ccnc2)c1C
→ i | ?
Cc1c([C@H]2[C@@H](CC#N)C2(C)C)c2ccccc2n1C
→ / | >26
Cc1nn(Cc2ccc(F)cc2)c(C)c1NC(=O)c1noc2c1CCCCC2
→ i | >57
CC(=O)NC1=NC(=O)/C(=C/N2CCCCC2)S1
→ i | >57
Cn1cccc1C(=O)OCC(=O)Nc1cc(C(C)(C)C)nn1-c1ccccc1
→ i | >57
COC(=O)c1ccc(NC(=O)c2sc3nc(-c4ccccc4)cn3c2C)cc1
→ i | >57
CCCCSc1c(C)c2cc3c(cc2[nH]c1=O)OCO3
→ i | >57
Cc1nc2ccccc2c(=O)n1NC(=O)c1ccc(F)cc1Cl
→ i | >57
COc1ccc(C2C(C(=O)Nc3ccc(F)cc3)=C(C)Nc3nc(CCCO)nn32)cc1 (centres undefined)
→ i | /
COC(=O)C1CCN(C(=O)CCCOc2ccccc2)CC1
→ i | /
CCc1ccc(N2CC(C(=O)Nc3cc(C)ccc3F)CC2=O)cc1 (centres undefined)
→ i | /
Cc1c(NC(=O)C(C)Sc2nc3ccccc3c(=O)n2CCO)c(=O)n(-c2ccccc2)n1C (centres undefined)
→ i | >57
CCC(=O)N1c2ccccc2-c2nnc(SC)nc2OC1c1ccc(N(C)C)cc1 (centres undefined)
→ i | /
C=CCN(C(=O)Nc1ccc(F)cc1)C1CC(=O)N(c2ccc(OC)cc2)C1=O (centres undefined)
→ i | >57
COc1cccc(-c2ccc(=O)n(CC(=O)Nc3cc4c(cc3NC(C)=O)OCCO4)n2)c1
→ i | >57
O=C(Nc1ccc(F)cc1)C1CCN(c2nnnn2-c2ccccc2)CC1
→ i | >57
COc1ccc(OC)c(/C=N/c2oc(-c3ccco3)c(-c3ccco3)c2C#N)c1
→ i | >11
Cn1cc(Cl)c(-c2nc3ccccc3[nH]2)n1
→ i | i

This is a subset; rates above refer to the full screens.
